High-throughput results from PubChem.
UUG fidelity = modulators of yeast start codon fidelity, primary screen, whole organism, S. cerevisiae, single point, plate reader | S. cerevisiae UUG-firefly luciferase reporter, luminescence/redox ratio | activity score, % at 18.7 µM | 350,000 compounds, 0.13% hits | AID 602363, 2012;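 active means replicate mean at a twofold rise or more, about +100% in these data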;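 further: firefly luciferase made from a UUG start codon reports start codon fidelity; reporter light over untreated wells divided by growth signal over untreated wells; some hits fall short of that in this replicate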
HIV Env fusion = inhibitors of HIV-1 Env-driven cell-cell fusion, primary screen, HeLa-JRFL effector, CEM21 target cells, luciferase. 360,000 compounds, 1.1% hits. AID 651610, 2012. inhibition, % at 12.3 µM;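 active means mean replicate inhibition score of at least 50 and every replicate individually at or above 50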;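 further: 0% = plate neutral controls and 100% = maraviroc near 300 nM; one replicate is shown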
An asterisk follows results filed as active; [ ] = remark or other dose. These rows are one share of the data (hit frequency here may not be typical).

SMILES	UUG fidelity	HIV Env fusion
COc1cccc(S(=O)(=O)N(C)C[C@@H]2Oc3ncc(-c4ccc(F)cc4)cc3C(=O)N([C@H](C)CO)C[C@@H]2C)c1	10.4	22.1[16.7 µM]
C[C@H](CO)N1C[C@H](C)[C@@H](CN(C)Cc2cccc(F)c2)Oc2ncc(C#CCN(C)C)cc2C1=O	-3.6	20.3[16.7 µM]
O=C(Nc1ccc(F)cc1)N[C@@H]1CC[C@@H](CCNS(=O)(=O)c2ccccc2F)O[C@H]1CO	-1.6	-6.3[16.7 µM]
Cc1cc(C(=O)Nc2cccc3c2O[C@H](CN(C)S(=O)(=O)c2ccc(Cl)cc2)[C@@H](C)CN([C@H](C)CO)C3=O)n(C)n1	-5.0	23.9[16.7 µM]
COc1ccc(NC(=O)Nc2ccc3c(c2)CC(=O)N([C@H](C)CO)C[C@H](C)[C@H](CN(C)C(=O)Nc2ccc4c(c2)OCO4)O3)cc1	-3.1	2.4[16.7 µM]
C[C@@H]1CN([C@@H](C)CO)C(=O)CCCn2nncc2CO[C@H]1CN(C)CC1CCCCC1	2.4	7.6
Cc1ccc(S(=O)(=O)Nc2ccc3c(c2)C(=O)N([C@H](C)CO)C[C@@H](C)[C@@H](CN(C)S(=O)(=O)c2ccc(C)cc2)O3)cc1	-4.3	-17.5[16.7 µM]
Cc1ccccc1S(=O)(=O)N[C@@H]1CC[C@@H](CCn2cc(Cc3ccccc3)nn2)O[C@H]1CO	-9.7	3.8[16.7 µM]
Cc1ccc(S(=O)(=O)N[C@H]2CC[C@@H](CCNC(=O)Cc3ccccn3)O[C@H]2CO)cc1	4.2	9.5[16.7 µM]
COC(=O)[C@@]1(Cc2ccccc2CN=[N+]=[N-])N=C(c2ccc(OCCCO)cc2)O[C@H]1c1ccccc1	17.6	44.1[16.7 µM]
C[C@H](CO)N1C[C@H](C)[C@H](CN(C)C(=O)Nc2ccc(C(F)(F)F)cc2)Oc2c(NC(=O)C3CC3)cccc2C1=O	5.7	-3.5[16.7 µM]
COCC#Cc1ccc2c(c1)O[C@@H](CN(C)C(=O)COC)[C@H](C)CN([C@@H](C)CO)S2(=O)=O	-7.7	8.9[16.7 µM]
C[C@H]1CN([C@@H](C)CO)C(=O)Cc2cc(NC(=O)Cc3ccccc3)ccc2O[C@@H]1CN(C)Cc1ccc(-c2ccccc2)cc1	2.8	-23.9[16.7 µM]
COc1ccc(CN(C)C[C@H]2Oc3ccc(NS(=O)(=O)c4ccc(OC)cc4)cc3C(=O)N([C@@H](C)CO)C[C@H]2C)cc1	22.9	7.9[16.7 µM]
COc1ccc(-n2nnnc2C(c2ccnc3ccccc23)N2CCN(C/C=C/c3ccccc3)CC2)cc1 (stereo unspecified)	15.0	26.2
CN(C)c1ccc2c(c1)[C@H]1C[C@H](CC(=O)NC3CCCC3)O[C@H](CO)[C@H]1O2	-8.4	0.9[16.7 µM]
COc1ccccc1-c1cnc2c(c1)C(=O)N([C@H](C)CO)C[C@H](C)[C@H](CN(C)C(=O)c1cccnc1)O2	-5.1	10.8[16.7 µM]
O=C(Nc1ccc(F)cc1)N[C@H]1CC[C@H](CCn2cc(-c3ccccc3F)nn2)O[C@@H]1CO	0.9	-6.5[16.7 µM]
C[C@@H]1CN([C@H](C)CO)S(=O)(=O)c2ccc(C3=CCCCC3)cc2O[C@H]1CN(C)C(=O)c1ccncc1	-6.5	-10.4[16.7 µM]
CO[C@H]1CN(C)C(=O)c2ccc(NC(=O)C3CC3)cc2OC[C@H](C)N(C(=O)c2ccccc2F)C[C@@H]1C	-0.5	-4.1[16.7 µM]

Single values from above.
Value for CN(C)c1ccc2c(c1)[C@H]1C[C@H](CC(=O)NC3CCCC3)O[C@H](CO)[C@H]1O2 under UUG fidelity: -8.4
Value for COc1ccc(-n2nnnc2C(c2ccnc3ccccc23)N2CCN(C/C=C/c3ccccc3)CC2)cc1 (stereo unspecified) under HIV Env fusion: 26.2

Later entries:
SMILES	UUG fidelity	HIV Env fusion
O=S(=O)(N[C@@H]1CC[C@H](CCn2cc(C3(O)CCCC3)nn2)O[C@H]1CO)c1ccc(F)cc1	-2.8	-1.2[16.7 µM]
CCC(=O)Nc1ccc2c(c1)C(=O)N(C)[C@H]1CC[C@H](CC(=O)N[C@@H](C)c3ccccc3)O[C@@H]1CO2	-12.7	-7.1[16.7 µM]
Cc1ccc(S(=O)(=O)Nc2ccc3c(c2)CC(=O)N([C@H](C)CO)C[C@@H](C)[C@@H](CN(C)C(=O)Nc2ccc4c(c2)OCO4)O3)cc1	-1.8	2.8[16.7 µM]
C[C@@H]1CN([C@@H](C)CO)C(=O)c2cc(C3=CCCCC3)cnc2O[C@@H]1CN(C)Cc1ccc(C(=O)O)cc1	-0.7	0.9[16.7 µM]
CC(C)c1cn(CC[C@H]2CC[C@@H](NS(=O)(=O)c3ccc(F)cc3)[C@H](CO)O2)nn1	2.9	0.0[16.7 µM]
CN(C)Cc1cn(CC[C@@H]2CC[C@H](N)[C@H](CO)O2)nn1	-14.6	63.1*[16.7 µM]
C[C@H](CO)N1C[C@H](C)[C@H](CN(C)C)Oc2cc(-c3ccccc3F)ccc2S1(=O)=O	-10.0	-12.9[16.7 µM]
COc1ccc(NC(=O)N(C)C[C@H]2Oc3ccc(NC(=O)Nc4cccc5ccccc45)cc3C(=O)N([C@H](C)CO)C[C@H]2C)cc1	-1.2	6.1[16.7 µM]
CN1CCN(C(=O)C[C@H]2C[C@@H]3c4cc(NC(=O)C5CCOCC5)ccc4O[C@@H]3[C@@H](CO)O2)CC1	-5.0	-26.4[16.7 µM]
CCC(=O)Nc1ccc2c(c1)OC[C@@H](C)N(CCC(F)(F)F)C[C@H](C)[C@@H](OC)CN(C)C2=O	-3.2	-1.8[16.7 µM]
O=C(N[C@H]1CC[C@H](CCn2cc(C3CC3)nn2)O[C@H]1CO)c1cccnc1	3.8	0.9[16.7 µM]
C[C@@H]1CCCCO[C@@H](CN(C)C(=O)Cc2ccccc2)[C@H](C)CN([C@H](C)CO)C(=O)c2cc(NC(=O)Nc3ccc(F)cc3)ccc2O1	-5.6	18.5[16.7 µM]
COc1cccc(CN2C[C@@H](C)[C@H](OC)CN(C)C(=O)c3ccc(NS(=O)(=O)c4cn(C)cn4)cc3OC[C@H]2C)c1	-1.1	5.7[16.7 µM]
CCCNC(=O)N1[C@H](C#N)[C@@H](c2ccc(-c3cccc(OC)c3)cc2)[C@@H]1CO	-12.7	-30.0[16.7 µM]
COc1cccc(CNC(=O)C[C@@H]2C=C[C@H](NC(=O)C3CC3)[C@@H](CO)O2)c1	-6.5	9.5[16.7 µM]
Cc1ccc(S(=O)(=O)Nc2ccc3c(c2)C(=O)N([C@@H](C)CO)C[C@@H](C)[C@@H](CN(C)C)OCCCC[C@@H](C)O3)cc1	12.7	9.8[16.7 µM]
C[C@H](CO)N1C[C@H](C)[C@H](CN(C)S(C)(=O)=O)Oc2c(NC(=O)C3CCOCC3)cccc2C1=O	-4.6	-0.8[16.7 µM]
C[C@@H]1CN([C@@H](C)CO)C(=O)Cc2cc(NC(=O)Cc3cn(C)c4ccccc34)ccc2O[C@H]1CN(C)C(=O)Nc1ccc2c(c1)OCO2	-0.5	-1.4[16.7 µM]
COc1ccccc1-c1cn(CC[C@@H]2CC[C@@H](NC(=O)NC(C)C)[C@@H](CO)O2)nn1	2.1	-5.8[16.7 µM]
CC(C)NC(=O)N(C)C[C@@H]1Oc2c(cccc2N(C)C)C(=O)N([C@@H](C)CO)C[C@@H]1C	-0.3	-4.2[16.7 µM]

Brought forward from above: 2 entries; new compounds follow.
SMILES	UUG fidelity	HIV Env fusion
COc1ccccc1-c1cn(CC[C@@H]2CC[C@@H](NC(=O)NC(C)C)[C@@H](CO)O2)nn1	2.1	-5.8[16.7 µM]
CC(C)NC(=O)N(C)C[C@@H]1Oc2c(cccc2N(C)C)C(=O)N([C@@H](C)CO)C[C@@H]1C	-0.3	-4.2[16.7 µM]
C[C@H]1CN([C@@H](C)CO)S(=O)(=O)c2ccc(-c3ccncc3)cc2O[C@H]1CN(C)C(=O)C1CC1	-1.0	-14.7[16.7 µM]
C[C@@H]1CN([C@H](C)CO)S(=O)(=O)c2ccc(C#CC3CC3)cc2O[C@@H]1CN(C)C(=O)C1CC1	13.6	5.7[16.7 µM]
O=C(Nc1ccc2c(c1)OCO2)N[C@H]1CC[C@@H](CCNC(=O)C2CCOCC2)O[C@@H]1CO	-8.4	-17.5[16.7 µM]
COc1ccc(S(=O)(=O)N(C)C[C@@H]2OCCCC[C@@H](C)Oc3ccc(NC(=O)CCCN(C)C)cc3C(=O)N([C@H](C)CO)C[C@@H]2C)cc1	10.5	-9.0[16.7 µM]
COCc1cn(CC[C@@H]2CC[C@H](NC(=O)Nc3c(C)noc3C)[C@@H](CO)O2)nn1	5.9	2.0[16.7 µM]
C[C@@H]1CN([C@H](C)CO)C(=O)c2cccc(NS(=O)(=O)c3ccc(F)cc3)c2O[C@@H]1CN(C)S(C)(=O)=O	-4.7	8.8[16.7 µM]
C[C@H]1CCCCO[C@H](CN(C)S(=O)(=O)c2ccccc2)[C@@H](C)CN([C@@H](C)CO)C(=O)c2cc(NS(=O)(=O)c3ccc(Cl)cc3)ccc2O1	-3.1	25.8[16.7 µM]
CC(C)NC(=O)Nc1ccc2c(c1)C(=O)N([C@@H](C)CO)C[C@@H](C)[C@@H](CN(C)Cc1ccc(C(F)(F)F)cc1)OCCCC[C@@H](C)O2	16.1	70.3*[16.7 µM]
CNC[C@@H]1Oc2ccc(NC(=O)Nc3ccc4c(c3)OCO4)cc2C(=O)N([C@H](C)CO)C[C@@H]1C	-5.3	5.5[16.7 µM]
COc1ccc(NC(=O)N(C)C[C@@H]2OCCCC[C@@H](C)Oc3ccc(NC(=O)c4ccccc4)cc3C(=O)N([C@@H](C)CO)C[C@H]2C)cc1	-2.7	-18.3[16.7 µM]
C[C@@H]1CN([C@@H](C)CO)C(=O)c2cc(NC(=O)C3CC3)ccc2O[C@H]1CN(C)S(C)(=O)=O	-12.1	-13.8[16.7 µM]
CNC[C@H]1OCCCC[C@H](C)Oc2ccc(NS(=O)(=O)c3ccc(C)cc3)cc2C(=O)N([C@@H](C)CO)C[C@@H]1C	26.9	13.1[16.7 µM]
O=C(NCC[C@H]1CC[C@@H](NC(=O)C2CCCC2)[C@@H](CO)O1)Nc1ccc(Cl)cc1	10.2	-15.3[16.7 µM]
C=CCN1C(=O)[C@]2(O[C@H](CCn3cc([C@H](O)c4ccccc4)nn3)[C@@H]([Si](C)(C)c3ccc(OC)cc3)[C@@H]2C)c2cc(N3CCOC3=O)ccc21	-17.2	-3.2[16.7 µM]
O=C(Nc1ccc(C(F)(F)F)cc1)N[C@H]1CC[C@@H](CC(=O)N2CCCCC2)O[C@H]1CO	11.2	-18.1[16.7 µM]
C[C@H]1CN([C@@H](C)CO)S(=O)(=O)c2ccc(-c3cncnc3)cc2O[C@H]1CN(C)C(=O)c1cccc(F)c1	3.7	11.2[16.7 µM]
C[C@H](CO)N1C[C@H](C)[C@H](CN(C)S(=O)(=O)c2ccc(F)cc2)Oc2c(NC(=O)Nc3ccc4c(c3)OCO4)cccc2C1=O	1.1	-10.9[16.7 µM]
C[C@@H]1CCCCO[C@@H](CN(C)S(=O)(=O)c2cn(C)cn2)[C@@H](C)CN([C@H](C)CO)C(=O)c2cc(NC(=O)Nc3ccc(F)cc3)ccc2O1	-0.8	-5.5[16.7 µM]
C[C@H]1CN([C@@H](C)CO)C(=O)Cc2cc(NC(=O)Nc3ccccc3)ccc2O[C@H]1CN(C)CC1CC1	3.0	24.1[16.7 µM]
C[C@@H]1CCCCO[C@@H](CN(C)Cc2ccc(C(F)(F)F)cc2)[C@@H](C)CN([C@@H](C)CO)C(=O)c2cc(NC(=O)CCC(F)(F)F)ccc2O1	11.7	10.0[16.7 µM]

In another format: four of the compounds above.
UUG fidelity | HIV Env fusion | SMILES
4.2 | 9.5[16.7 µM] | Cc1ccc(S(=O)(=O)N[C@H]2CC[C@@H](CCNC(=O)Cc3ccccn3)O[C@H]2CO)cc1
13.6 | 5.7[16.7 µM] | C[C@@H]1CN([C@H](C)CO)S(=O)(=O)c2ccc(C#CC3CC3)cc2O[C@@H]1CN(C)C(=O)C1CC1
11.2 | -18.1[16.7 µM] | O=C(Nc1ccc(C(F)(F)F)cc1)N[C@H]1CC[C@@H](CC(=O)N2CCCCC2)O[C@H]1CO
-0.3 | -4.2[16.7 µM] | CC(C)NC(=O)N(C)C[C@@H]1Oc2c(cccc2N(C)C)C(=O)N([C@@H](C)CO)C[C@@H]1C

Further entries follow.
SMILES	UUG fidelity	HIV Env fusion
C[C@H](CO)N1C[C@H](C)[C@@H](CN(C)C(=O)Nc2ccc3c(c2)OCO3)OCCCC[C@H](C)Oc2ccc(NC(=O)C3CCCCC3)cc2C1=O	-2.8	-31.7[16.7 µM]
C[C@H](CO)N1C[C@H](C)[C@@H](CN(C)S(=O)(=O)c2cn(C)cn2)Oc2c(NC(=O)c3ccc(-c4nccs4)cc3)cccc2C1=O	4.3	-20.5[16.7 µM]
COc1cccc(CNC(=O)C[C@@H]2C=C[C@H](NS(=O)(=O)c3ccccc3OC)[C@@H](CO)O2)c1	-26.0	-6.3[16.7 µM]
CO[C@H]1CN(C)C(=O)c2cc(NS(=O)(=O)c3ccc(C)cc3)ccc2OC[C@H](C)NC[C@H]1C	0.8	8.3[16.7 µM]
COc1ccc(NC(=O)N(C)C[C@H]2Oc3ccc(NS(=O)(=O)c4ccc(OC)cc4)cc3CC(=O)N([C@@H](C)CO)C[C@@H]2C)cc1	-6.1	5.3[16.7 µM]
C[C@@H]1CN([C@H](C)CO)C(=O)c2cc(-c3ccccc3F)cnc2O[C@H]1CN(C)C(=O)CN(C)C	-28.6	7.0[16.7 µM]
CC(C)NC(=O)Nc1cccc2c1O[C@@H](CN(C)C(=O)Nc1cccc3ccccc13)[C@@H](C)CN([C@H](C)CO)C2=O	7.7	-1.2[16.7 µM]
